Source: PubChem (National Center for Advancing Translational Sciences (NCATS))
Menin MLL FP FL = qHTS Assay for Inhibitors Targeting the Menin-MLL Interaction in MLL Related Leukemias: Competition With Fluorescein Labeled MLL-derived Peptide; Fluorescence polarization, fluorescein-MLL peptide displacement from menin; 290,000 tested, under 10 active; AID 1766, 2009; FP activity change, % at 61.4 µM; inconclusive = falling polarisation curve, or a change in total fluorescence; inactive = total fluorescence flat and polarisation flat or rising; no compound was filed as active; the % refers to the polarisation; negative = inhibition;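 further: % of control where 0% means no effect; inhibitors lower the polarisation; unlabelled MLL peptide was the positive control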
TRPV1 potentiator = HTS Assay for Compounds that Act as Potentiators of the Vanilloid Receptor 1. AID 540277, 2011. TRPV1-expressing cells, Fluo-8 calcium influx, capsaicin EC20 potentiation; host cell line not named in the record; control for the full effect not named in the record. 320,000 compounds, 0.02% hits. potentiation, % at 8.33 µM; active means potentiation above 80%; inconclusive means 30% to 80%; inactive means below 30%; further: 0% is about no effect
Target sequence (Q8NER1 whole entry, looked up): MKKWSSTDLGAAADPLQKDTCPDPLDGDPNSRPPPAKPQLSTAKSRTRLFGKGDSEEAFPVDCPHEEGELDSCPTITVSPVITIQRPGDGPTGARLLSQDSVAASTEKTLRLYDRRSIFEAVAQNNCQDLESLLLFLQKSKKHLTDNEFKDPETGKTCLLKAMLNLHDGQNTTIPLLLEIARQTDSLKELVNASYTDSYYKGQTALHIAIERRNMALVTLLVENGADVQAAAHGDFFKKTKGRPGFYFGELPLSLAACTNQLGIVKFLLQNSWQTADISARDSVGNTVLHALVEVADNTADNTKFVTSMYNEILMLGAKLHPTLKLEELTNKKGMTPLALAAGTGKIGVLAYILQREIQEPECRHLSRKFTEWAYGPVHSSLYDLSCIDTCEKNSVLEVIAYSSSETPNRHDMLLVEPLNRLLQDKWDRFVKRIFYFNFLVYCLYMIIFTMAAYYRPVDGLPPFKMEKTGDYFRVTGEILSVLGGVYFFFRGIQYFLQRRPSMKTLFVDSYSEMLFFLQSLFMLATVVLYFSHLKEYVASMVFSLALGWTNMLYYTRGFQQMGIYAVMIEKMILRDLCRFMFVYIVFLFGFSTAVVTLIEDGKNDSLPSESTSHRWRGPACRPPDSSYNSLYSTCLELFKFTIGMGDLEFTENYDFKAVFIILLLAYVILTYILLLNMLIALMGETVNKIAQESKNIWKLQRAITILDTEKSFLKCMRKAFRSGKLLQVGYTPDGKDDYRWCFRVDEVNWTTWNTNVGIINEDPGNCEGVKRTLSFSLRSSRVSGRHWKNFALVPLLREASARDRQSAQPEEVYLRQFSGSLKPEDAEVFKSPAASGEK
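Cells expressing TRPV1 were dye-loaded with Fluo-8 and read kinetically: 10 s baseline, 3 min after compound (agonist portion), then 2 min after EC20 capsaicin (allosteric enhancer portion). Calcium-bound dye fluorescence at 480/520 nm.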
TRPML1 blocker = qHTS for Inhibitors of the Human Mucolipin Transient Receptor Potential 1 (TRPML1); Mucolipin-1 (Homo sapiens), Q9GZU1; TRPML1-inducible cells, Ca2+ dye fluorescence, FDSS; stronger effect = lower value; inhibition of EC80 agonist-evoked calcium signal; activity change, negative = inhibition, % (no concentration beside the values); 390,000 compounds, 0.02% hits; in the data active means activity change below about -50%; inconclusive means about -30% to -50%; inactive means above about -30%;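 further: stimulus is agonist 54-4 at its EC80 concentration; on the % scale 0 is the no-effect control and ±100 the full control effect; compound concentration not given in the record; the text of the record puts the active cut at -80%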
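Tet-induced TRPML1-DL cells loaded with Ca8 no-wash calcium dye were read kinetically on FDSS. Compound addition was followed by EC80 agonist 54-4 (4 uM final); inhibition was read over 110 s.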
PINK1 modulator = A Quantitative High throughput Screen to Identify Chemical Modulators of PINK1 Expression; Potency, µM (titrated, usually from 76.6 µM), for the others: at the top dose activation (PINK1 increase), actives largely listed as activators; PINK1 immunofluorescence, high-content cytometry, 24 h; AID 624263, 2012; 410,000 compounds, 0.2% hits; active = well fitted activation curve with a large enough effect; inconclusive = small, poorly fitted or top-dose-only effect; inactive = flat fitted curve, though single readings scatter; cell line not stated here;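 further: potency means the concentration at half of the fitted maximal effect; % of control where 0% means no effect; nearly all actives have a fitted effect of over 65% in size; a mitochondrial uncoupler was the plate control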
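Cells are seeded, rested 12 hours, then given compound at five concentrations or DMSO for 24 hours. After fixation, blocking and antibody staining, PINK1 amount and mitochondrial localization are scored; CCCP serves as control.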
TRPML1 agonist = qHTS for Agonists of the Human Mucolipin Transient Receptor Potential 1 (TRPML1); 410,000 compounds, 0.12% hits; activation, % (concentration not given with the values); TRPML1-expressing cells, Ca2+ dye fluorescence, FDSS; host cell line not named in the record; reference of the full effect not given here; Mucolipin-1 (Homo sapiens), Q9GZU1; in the data active = activation above about 50%; inconclusive = about 30% to 50%; inactive = below about 30%; further: 0% is about no effect; the text of the record puts the active cut at 80%
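TRPML1-DL cells, Tet-induced overnight (~16 h, 37 degrees C), loaded 45-90 min at room temperature with Ca8 no-wash calcium dye plus quencher. FDSS fluorescence: 10 s baseline, compound pin-transfer, 110 s agonist read, then EC80 54-4 (4uM final) and 110 s antagonist read.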
ClpP mod = qHTS Assay for Activators of ClpP; Potency, µM (highest dose often 57.5 µM), for the others: at the top dose activity change, negative = active; AID 651965, 2013; purified B. subtilis ClpP, FRET peptide cleavage, 20 min; ATP-dependent Clp protease proteolytic subunit (Bacillus subtilis (strain 168)), P80244; 340,000 compounds, 1.9% hits; active = well fitted falling curve with a large enough effect; inconclusive = small, poorly fitted or top-dose-only effect; inactive = no such curve, though single readings can be large or run the other way; further: potency means the concentration at half of the fitted maximal effect; the source files actives as falling curves though it sought activators and does not explain the sign; nearly all actives have a fitted effect of over 65% in size; many hits overshoot -100%
Target sequence (P80244 whole entry, looked up): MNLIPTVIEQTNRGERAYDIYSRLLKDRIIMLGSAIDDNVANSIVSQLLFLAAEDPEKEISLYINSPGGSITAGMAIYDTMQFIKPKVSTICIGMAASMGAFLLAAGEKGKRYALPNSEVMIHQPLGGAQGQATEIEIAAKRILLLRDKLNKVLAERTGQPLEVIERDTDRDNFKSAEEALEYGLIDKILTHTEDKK
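Buffer: 100 mM Tris/HCl pH8, 100 mM KCl, 0.05% low protease BSA, 2.5% glycerol, 0.01% Tween-20. ClpP 10 microg/mL final; 20 min RT; delta FRET normalized to ADEP and DMSO controls.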
Sfp PPTase inh = qHTS Assay for Inhibitors of Bacillus subtilis Sfp phosphopantetheinyl transferase (PPTase). Biochemical Sfp PPTase activity, qHTS. Potency, µM, for the others: max response, negative = inhibition, most hits filed as inhibitors. AID 1490, 2009. 4'-phosphopantetheinyl transferase ffp (Bacillus subtilis), Q9F4F7. 310,000 compounds, 3.5% hits; active means well fitted inhibition curve with a large enough effect; inconclusive means small, poorly fitted or top-dose-only effect, or another doubt; inactive means no such curve, though single readings can be large or run the other way;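 further: the enzyme is Sfp with the accession as filed and its product quenches rhodamine fluorescence; potency means the concentration at half of the fitted maximal effect; 0% = enzyme reaction without inhibitor and -100% = no enzyme wells; top concentration of the series not given in the record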
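Reaction rates are the 30-min fluorescence difference (ex 525, em 598 nm) in wells containing 15 nM Sfp, 5 uM rhodamine-CoA and 12.5 uM BHQ-2-YbbR at pH 7.6 with 10 mM MgCl2.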
* hit, by the source's call; ? = inconclusive; / = no result given; & = joins results of further samples; [ ] = remark or other dose. The list is partial (hit frequency here may not be typical).

SMILES	Menin MLL FP FL	TRPV1 potentiator	TRPML1 blocker	PINK1 modulator	TRPML1 agonist	ClpP mod	Sfp PPTase inh
Cc1ccc(C(C)C)c(OCC(=O)N2CCN(CCc3ccncc3)CC2)c1	/	/	-5.8	0.9%	0.3	1.8%	/
N/C(=N\[N+](=O)[O-])N/N=C/c1ccc(O)cc1	1.1	/	5.9	-4.9%[38.3 µM]	0.2	-0.2%	-1.2%
O=C1Nc2ccccc2Sc2ccccc21	-5.3	3.4	-4.2	3.9%	0.8	2.2%	-2.1%
O=C1NC(=O)C(CCc2ccncc2)(CCc2ccncc2)C(=O)N1Cc1ccccc1	-6.0	1.5	-8.7	4.0%	0.5	/	27.9%
CCCC1(CCC)C(=O)NC(=NCc2ccccc2)NC1=O	-1.2	3.7	-18.9	?	2.4	1.5%	-6.7%
CN1C(=O)C(O)N=C(c2ccccc2)c2ccccc21 (stereo not drawn)	6.0	-4.6	5.7	3.6%	0.8	/	7.6%
CN(C(=O)Oc1cccc2cccnc12)c1ccccc1	-1.1	3.7	5.9	1.7%[38.3 µM]	-0.4	-0.3%	-4.3%
CCOC(=O)C1(Cc2ccc(Cl)cc2)CCN(C(C)CCn2cccn2)CC1 (stereo not drawn)	-1.2	-4.5	50.9	1.5%	0.5	/	9.7%
NCC1(CC(=O)O)CCCCC1	5.2	19.0	/	/	/	/	-11.0%&9.0%&15.7%
O=c1c2ccccc2nc(Cc2ccccc2)n1-c1ccc(O)cc1	-5.3	13.9	-16.4	-1.8%	2.9	/	6.6%
O=C(Cc1ccccc1)NC(Oc1ccccc1Cl)C(Cl)(Cl)Cl (stereo not drawn)	-0.7	-0.9	-8.8	-0.1%	0.1	-0.2%	8.5%
C/C=C1/C[C@@H](C)[C@](O)(CO)C(=O)OCC2=CCN3CC[C@@H](OC1=O)[C@@H]23	/	14.7	45.8	1.0%	-0.5	0.0%	/
CCOC(=O)C(O)(c1ccc(N(C)C(=O)COc2ccccc2)cc1)C(F)(F)F (stereo not drawn)	/	/	4.0	-3.4%	3.2	-1.8%	/
COc1ccc(Cn2c(O)c(/C=N/NC(=O)c3ccncc3)c(=O)[nH]c2=O)cc1	5.6	-5.2	-4.3	2.5%	-1.0	/	9.0%
COc1ccc(NC(=O)N2CC[C@@]3(CCCN(C(=O)Oc4ccccc4)C3)C2)cc1	-0.7	/	/	0.9%	/	/	8.8%
O=C(CCn1c(=O)oc2ccccc21)N1CCC2(CC1)OCCO2	4.0	3.3	-10.6	-2.1%	-0.4	-3.5%	-11.1%
Cc1cccc(NP(=O)(Oc2ccccc2)Oc2ccccc2)c1C	0.9	-1.0	-4.6	0.8%	-0.3	0.0%	-13.5%
CN1C(=O)C(=Cc2ccc(SC3CCCCC3)o2)C(=O)N(C)C1=O	?	5.0	-21.1	9.4%	-0.3	/	56.2µM*
O=C(N/N=C/c1c(O)n(Cc2ccc(F)cc2)c(=O)[nH]c1=O)c1ccccc1O	12.2	-7.2	12.1	?	0.1	-23.6%	-0.6%
CC1=NN(c2ccccc2)C(=O)C1/C=C1/C(=O)NC(=O)N(c2cc(C)cc(C)c2)C1=O (stereo not drawn)	8.1	26.4	-12.8	3.7%	-0.7	-1.0%	3.1%
CC(C)C[C@H]1COc2cc(N3CCN(C)CC3)ccc2S(=O)(=O)N1	/	/	/	4.8%	0.0	-3.4%	/
CC(NS(C)(=O)=O)c1nnc2n1-c1ccc(Br)cc1C(c1ccccc1Cl)=NC2 (stereo not drawn)	/	/	13.1	2.5%	0.2	/	/
CCOc1c(Cl)cc(CNC(C)C(O)c2ccccc2)cc1OC (stereo not drawn)	-0.4	-0.8	11.3	-0.4%	-0.5	1.0%	19.9%
Cc1ccc(NC(=O)COC(=O)/C=C/c2ccco2)cc1S(=O)(=O)N(C)C	21.6	7.3	9.7	4.0%	0.5	0.8%	44.7µM*
FC(F)(F)/C(=N\P(=S)(N1CCOCC1)N1CCOCC1)N1CCOCC1	1.7	-2.0	23.8	4.3%[38.3 µM]	-0.2	-1.4%	14.1%

Next results follow.
SMILES	Menin MLL FP FL	TRPV1 potentiator	TRPML1 blocker	PINK1 modulator	TRPML1 agonist	ClpP mod	Sfp PPTase inh
CC12CN3CC(c4ccccc4)(CN(C1)C31CCCCC1)C2=O	-2.1	-6.5	-11.0	1.4%	-0.8	12.6µM*	12.8%
S=C(S)N1CCCC1	-1.2&-25.0	9.1	11.7	0.2%	0.1	-0.5%	5.62µM*
Cc1cccc(N2C(=O)NC(=O)/C(=C\c3ccc4c(c3)CCCN4Cc3ccccc3)C2=O)c1	?	-17.3	18.0	3.2%	3.3	5.9%	44.7µM*
C=C1C2[C@H](OC(C)=O)[C@@H]3CC(=O)[C@]4(C)OC[C@@]3(C)[C@@]4(O)[C@@H](OC(C)=O)[C@H](OC(C)=O)[C@@]2(COC(=O)c2ccccc2)[C@@H](OC(C)=O)C[C@@H]1O (stereo partly drawn)	-1.7	-12.3	/	5.3%	/	0.9%	14.0%
COc1cc(/C=C/[N+](=O)[O-])ccc1OC(=O)c1cccnc1	1.3	7.5	-6.0	-0.3%	0.1	0.8%	-93.6%
CC(=NCCCO)c1c(O)[nH]c(=O)[nH]c1=O	1.2	-9.1	-2.7	-0.5%	1.0	/	8.0%
O=C(COc1ccc(Br)cc1)N1CCN(C2CCCC2)CC1	-0.2	-16.8	11.8	-2.0%	1.3	-0.6%	-2.9%
O=C(Nc1c(F)cc(F)cc1F)c1cccn(Cc2ccccc2)c1=O	5.8	-5.7	-2.0	0.4%	0.3	/	18.4%
COc1ccc(-c2coc3c(C(=O)Nc4cc(OC)c(OC)c(OC)c4)cccc23)c(C)c1	/	/	/	5.0%	-0.2	?	/
C=CCOC(=O)C1=C(C)OC(N)=C(C(=O)OCC)C12C(=O)N(CC(N)=O)c1ccccc12 (stereo not drawn)	-2.9	-0.2	-1.0	5.9%[38.3 µM]	-0.1	0.1%	-10.0%
CCCNS(=O)(=O)c1ccc(OCC(=O)N2CCN(Cc3ccc4c(c3)OCO4)CC2)c(C)c1	/	1.1	1.4	-0.6%	0.5	-2.3%	/
O=[N+]([O-])c1ccc(O)c([N+](=O)[O-])c1	-1.7	/	-9.1	-0.6%	0.2	0.1%	5.9%
COCCO[C@H]1CC[C@@]2(C)C(=CCC3C2CC[C@@]2(C)C3CC[C@]2(C)O)C1 (stereo partly drawn)	/	/	3.9	6.1%	-0.6	1.7%	/
Cn1c(=O)n(C)c2cc(CNCCc3ccccc3)ccc21	/	/	21.2	0.8%	-0.2	1.1%	/
O=S1(=O)NCC2(CC2)CN1Cc1ccccc1	/	/	/	0.3%	-0.6	2.1%	/
CN1CCN(C(=S)c2ccc([N+](=O)[O-])cc2)CC1	-2.5	-6.4	17.1	-1.0%	-0.2	2.2%	12.6µM*
Cc1cc(OCC(=O)OC(C)C)c2c3c(c(=O)oc2c1)CCCC3	1.2	-12.5	9.0	2.2%	2.5	35.5µM*	9.8%
C=CCSC1=N/C(=C\c2cc(OC)c3c(c2)OCO3)C(=O)S1	?	-14.8	-8.6	-0.1%	-0.3	-2.9%	17.8µM*
Fc1ccc(C[n+]2c(-c3ccccc3)cc(-c3ccccc3)cc2-c2ccccc2)cc1	/	12.1	53.1	?	-0.5	4.4%	/
CCN1C(=O)NC(=O)/C(=C\c2cn(CC(=O)N3CCCCC3)c3ccccc23)C1=O	3.8	1.1	-10.4	0.4%	-0.2	-1.4%	26.2%
Cc1cccc(N2C(=O)NC(=O)/C(=C/c3ccc(N4CCOCC4)cc3)C2=O)c1	15.3	-2.2	5.3	1.8%	0.2	-3.1%	50.1µM*
COc1cccc(CCNCc2ccc(SC)cc2)c1	7.4	-7.5	22.3	2.8%	-0.3	0.3%	-18.6%
CN(C)CC1CSCCC1(O)c1ccc(C(F)(F)F)cc1 (stereo not drawn)	/	-12.2	-5.0	-0.5%	0.1	-0.8%	10.4%
C=C1C(=O)O[C@H]2C[C@@H](C)[C@@H]3C=CC(=O)[C@@]3(C)C[C@H]12	-5.5	-13.8	-11.4	5.1%	-0.2	-1.3%	10.5%
CCCCn1c(O)c(C(CC)=NCc2cc(OC)cc(OC)c2)c(=O)[nH]c1=O	3.4	2.0	6.6	0.6%[38.3 µM]	0.8	1.0%	-10.7%

Carrying on:
SMILES	Menin MLL FP FL	TRPV1 potentiator	TRPML1 blocker	PINK1 modulator	TRPML1 agonist	ClpP mod	Sfp PPTase inh
OC(CCNCCc1c[nH]c2ccccc12)C(F)(F)Cl (stereo not drawn)	1.1	-11.4	12.7	3.4%	0.5	/	10.8%
Cc1ccc(-c2nnc(Nc3ccc(OC(F)(F)Cl)cc3)c3ccccc23)cc1S(=O)(=O)NC(C)(C)CO	/	/	15.2	-0.1%	-0.1	?	/
CCN(CC)C(=O)c1ccc(NC(=O)COc2ccc([N+](=O)[O-])cc2Cl)cc1	7.2	2.5	35.0	-1.0%	2.5	1.3%	-5.6%
CC12CCC3C(CCC4CC(=O)OCC43C)C1CCC2O (stereo not drawn)	/	/	1.1	0.4%	-0.3	2.2%	/
CCCC[N+]12CCC(CC1)C(=C(c1ccccc1)c1ccccc1)C2	-0.1	0.0	8.7	0.3%	-0.6	-0.9%	1.2%
S=P(NCCNP(=S)(N1CC1)N1CC1)(N1CC1)N1CC1	/	/	-6.8	0.1%	-0.6	/	/
COC(=O)C1=C(c2ccccc2OCc2ccccc2)C[C@@H]2CC[C@H]1N2C(=O)NCCOc1ccccc1	/	1.9	6.3	-0.3%	-0.1	-0.1%	/
O=C(c1ccccc1F)c1cn(CC(=O)N2CCCCC2)c2ccccc12	3.2	-4.1	-7.8	-1.5%[38.3 µM]	0.3	-1.1%	9.4%
CCOP(=S)(OCC)Oc1cc(C)oc(=O)c1Cl	-1.0	-3.2	-7.3	3.6%	-1.1	/	8.91µM*
CCN1CCN(c2nc3c(c(=O)[nH]2)CCC3)CC1	1.7	-2.3	/	-0.5%	/	0.4%	6.9%
CCOC(=O)C1(c2ccccc2)CCN(CCC(=O)Nc2ccc(OC)cc2)CC1	/	/	-3.0	0.2%	0.0	-6.8%	/
